Assay outcomes from PubChem.
FLuc counter – counter-screen for miR-21 project: firefly luciferase inhibitors or activators; P08659; purified FLuc, Km substrates, luminescence inhibition; Potency, µM (series often up to 57.5 µM), inactives show top-dose activity change, negative = inhibition, actives largely listed as inhibitors; 6.9% of 360,000 active; AID 588342;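 also: potency is read from the fitted curve at half-maximal effect; plate controls were vehicle for no effect and reference inhibitor for full effect; nearly all actives have a fitted effect of over 55% in size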
Target sequence (P08659 whole entry, looked up): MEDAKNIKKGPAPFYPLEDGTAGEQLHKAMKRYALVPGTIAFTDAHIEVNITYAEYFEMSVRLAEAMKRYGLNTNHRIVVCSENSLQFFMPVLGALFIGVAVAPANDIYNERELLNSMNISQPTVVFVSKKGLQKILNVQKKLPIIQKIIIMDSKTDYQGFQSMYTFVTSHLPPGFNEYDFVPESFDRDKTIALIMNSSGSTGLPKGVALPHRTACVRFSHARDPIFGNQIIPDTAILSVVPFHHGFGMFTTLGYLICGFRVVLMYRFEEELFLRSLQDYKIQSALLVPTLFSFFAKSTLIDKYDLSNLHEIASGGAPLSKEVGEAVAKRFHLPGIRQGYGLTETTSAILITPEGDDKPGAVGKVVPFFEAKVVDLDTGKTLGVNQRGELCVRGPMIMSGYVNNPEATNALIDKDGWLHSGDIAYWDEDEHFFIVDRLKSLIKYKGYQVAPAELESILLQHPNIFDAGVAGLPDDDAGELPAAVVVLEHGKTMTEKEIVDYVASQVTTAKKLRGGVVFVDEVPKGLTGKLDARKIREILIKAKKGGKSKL
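Purified P. pyralis luciferase (10nM final) with 10uM D-luciferin and 10uM ATP (Km levels) in 50mM Tris acetate pH 7.5, 10mM Mg acetate, 0.01% Tween-20, 0.05% BSA; qHTS 6-point titration, ~60 µM downward; luminescence read.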
ELG1 genotox – inducers of genotoxicity in HEK293T ELG1-luciferase cells. HEK293T ELG1-luciferase reporter, luminescence, 16 h. Potency, µM (highest dose often 46 µM), without a hit: at the top dose activity change, positive = activation, usual class: activators. 1.3% of 330,000 active. AID 504466; also: potency is read from the fitted curve at half-maximal effect; % of control where 0% means no effect; nearly all actives have a fitted effect of over 60% in size
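ELG1-luciferase HEK293T cells, 2,000/well; compound pinned in; 16 hr, 37 °C, 5% CO2; ONE-Glo, 30 min RT; luminescence on CCD imager.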
Menin MLL FP TR – inhibitors of human menin-MLL interaction, mutant MLL peptide; Potency, µM (highest dose often 61.6 µM), for inactives: top-dose FP activity change, negative = inhibition, hits mostly inhibitors; O00255; Menin + Texas Red MLL mutant peptide, fluorescence polarization; AID 1768; 0.23% of 270,000 active; active = well fitted inhibition curve with a large enough effect in the polarisation, with a control signal flat, not every such curve was filed as active; inconclusive = small, poorly fitted or top-dose-only effect, or effect the other way, or a change in a side signal; inactive = no such curve, though single readings can be large or run the other way; the % refers to the polarisation; also: potency is read from the fitted curve at half-maximal effect; % of control where 0% means no effect; many of its hits are not listed in these tables
PKM2 activator – increases activity of human pyruvate kinase M2. Potency, µM (titrated, usually from 57.5 µM), for inactives: top-dose activation, most hits filed as activators. purified PKM2, Kinase-Glo ATP luminescence, activation; response scale: 0% is enzyme alone, no compound. 0.34% of 260,000 active. AID 1631; also: potency is read from the fitted curve at half-maximal effect; % is scaled to controls: 0 for no effect and ±100 for the full control effect; nearly all actives have a fitted effect of over 55% in size
Target sequence (P14618 whole entry, looked up): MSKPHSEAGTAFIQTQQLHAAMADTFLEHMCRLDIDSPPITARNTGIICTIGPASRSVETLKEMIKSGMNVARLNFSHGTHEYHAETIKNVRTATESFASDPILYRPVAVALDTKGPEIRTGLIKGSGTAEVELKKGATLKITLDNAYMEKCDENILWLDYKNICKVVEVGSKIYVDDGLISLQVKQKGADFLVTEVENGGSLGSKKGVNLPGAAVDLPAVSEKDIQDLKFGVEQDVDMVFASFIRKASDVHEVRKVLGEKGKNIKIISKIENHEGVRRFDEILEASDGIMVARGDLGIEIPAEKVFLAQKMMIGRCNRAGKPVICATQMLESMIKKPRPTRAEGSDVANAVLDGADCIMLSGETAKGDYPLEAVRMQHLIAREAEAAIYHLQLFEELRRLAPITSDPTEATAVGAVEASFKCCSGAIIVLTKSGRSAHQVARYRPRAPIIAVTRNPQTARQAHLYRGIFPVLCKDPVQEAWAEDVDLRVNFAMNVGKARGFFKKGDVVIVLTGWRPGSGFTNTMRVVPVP
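hPK-M2, >95% pure; 0.1 mM ADP / 0.5 mM PEP final; imidazole pH7.2 buffer w/ 7 mM MgCl2, 50 mM KCl; 1 h RT; Kinase-Glo lum. Intermediate enzyme activity for dual inhibitor/activator qHTS.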
p53 reactivation – re-activators of mutant p53; AID 504706; Potency, µM (highest dose often 92.2 µM), inactives show top-dose activity change, positive = activation, hits mostly activators; 0.063% of 320,000 active; H1299 p53-A138V BP100-luciferase reporter, luminescence, 24 h; also: potency is read from the fitted curve at half-maximal effect; % of control where 0% means no effect; nearly all actives have a fitted effect of over 45% in size
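H1299 (p53-null), stable ts p53-A138V + BP100-Luc; 1000 cells/well, Opti-MEM/10% FBS; cpd 4 pt, 1:5; 24 h, 37 deg C, 5% CO2; detection reagent 10 min RT; luminescence.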
NPC1 prom act – activators of NPC1 promoter. Huh7 NPC1 promoter luciferase reporter, 24 h. Potency, µM (top dose mostly 9.22 µM), inactives show at the top dose activation, actives largely listed as activators. 2.4% of 320,000 active. AID 485313;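 also: potency is read from the fitted curve at half-maximal effect; % of control where 0% means no effect; nearly all actives have a fitted effect of over 60% in size; reporter is driven by a mutant NPC1 promoter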
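Huh7 cells stably carrying NPC1 promoter–luciferase, plated in Opti-MEM with 10% FBS for 2 h, were exposed to compound in DMSO for 24 h at 37 °C; luciferase reagent was added for 10 min and luminescence read.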
BRCA1 expr up – increases BRCA1 expression | Potency, µM (doses to about 46.1 µM), without a hit: at the highest dose activation, most hits filed as activators | MCF7-BRCA1-FFLuc reporter, luminescence, 48 h; response scale: scaled: vehicle 0%, 10 µM genistein 100% | 1.1% of 380,000 active; also: potency is read from the fitted curve at half-maximal effect; nearly all actives have a fitted effect of over 80% in size; some results filed as inactive show a strong effect at the top dose
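Quantitative HTS in MCF7 cells stably reporting BRCA1 expression via firefly luciferase. Compound treatment lasts 48 h at 37 °C in phenol-red free MEM. Activation is expressed relative to genistein at 10 microM and DMSO.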
Rab9 promoter act – activators of Rab9 promoter. Huh7 Rab9 promoter-luciferase reporter, luminescence, 24 h. Potency, µM (top dose mostly 9.22 µM), for inactives: top-dose activation, negative = inhibition, most hits filed as activators. 2.8% of 320,000 active. AID 485297; also: potency is read from the fitted curve at half-maximal effect; % of control where 0% means no effect; nearly all actives have a fitted effect of over 60% in size
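Luciferase signal after 10 min detection reagent at ambient indicates Rab9 promoter upregulation; stably transfected Huh7 cells were treated 24 h with compound in DMSO at 37 °C, 5% CO2.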
Giardia kill – kills Giardia lamblia; Giardia lamblia trophozoite viability; activity change, % at 7.66 µM, hits read low; 0.15% of 340,000 active; in the data active = activity change below about -80%; inconclusive = between about -30% and that limit;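 also: parasites exposed to compound for two days anaerobically before the ATP read; % is scaled to controls: 0 for no effect and ±100 for the full control effect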
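ATP-content bioluminescence gauges trophozoite survival. Cells (100/well) receive compound and incubate anaerobically for 48 hrs at 37 deg C; detection reagent follows for 15-30 min at room temperature.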
* marks the source's active call; other numbers are inactive results; ? = inconclusive; / = not tested or not shown; & = joins results of further samples; [ ] = remark or other dose. Unless noted, calls follow the shape of the dose curve; as a rule, active = well fitted curve in the direction sought with a large enough effect; inconclusive = small, poorly fitted or top-dose-only effect, or another doubt; inactive = no such curve, though single readings can be large; an effect the other way counts as inactive or inconclusive. A portion of the library; rates above refer to the full screens.

Value order – PKM2 activator | p53 reactivation | Rab9 promoter act | ELG1 genotox | Giardia kill | FLuc counter | Menin MLL FP TR | NPC1 prom act | BRCA1 expr up
COc1ccc(N2C(=O)C(CC(N)=O)N(NC(=O)CCc3ccccc3)C2=O)cc1 (configuration not stated)
→ 4% | -8% | 1% | 1% | -8 | -7% | -3% | 7% | 0%
O=c1[nH]c(=O)n([C@H]2C[C@H](O)[C@@H](CO)O2)cc1Br
→ / | -8% | 27%[46.1 µM] | 12% | 20 | 3% | -5%[24.8 µM] | 6%[46.1 µM] | -46%
CC(C)N=C(N)N=C(N)Nc1ccc(Cl)cc1
→ / | -6% | -14% | -38%[inhibitor] | -23 | 6% | / | -7% | -24%
NS(=O)(=O)c1cc(C(=O)O)c(NCc2ccco2)cc1Cl
→ / | / | / | / | 3 | / | 3% | / | 16%
CCSC1=NC2(CCCCC2)Nc2sc3c(c21)CCCC3
→ 21% | 2% | 3% | -2% | -1 | -19% | -15% | -5% | -43%
CN(C)CCCCOc1cccc(Br)c1
→ 8% | -3% | -3% | 0% | -29 | -1% | -10% | -4% | -43%
CC1(C)CC(N2CCCC2)=CC(=[N+]2CCCC2)C1
→ 1% | -1% | -38%[inhibitor] | -7% | -12 | 2% | 7% | -31%[inhibitor] | -44%
O=c1cc(-c2ccccc2)oc2cc(O)cc(O)c12
→ / | / | / | / | 15 | / | ? | / | ?
CC(c1cc2ccccc2s1)N(O)C(N)=O (configuration not stated)
→ -4% | / | 3% | / | / | -6% | / | -2% | /
C[N+](C)(C)CCOC(N)=O
→ / | -1% | 0%[46.1 µM] | -1% | 7 | -2% | -8% | 9%[46.1 µM] | 1%
CC1(C)CC(N2CCN(C(c3ccccc3)c3ccccc3)CC2)=CC(=[N+]2CCCCC2)C1
→ -1% | -11% | -43%[inhibitor] | -1% | 18 | 2% | / | -43%[inhibitor] | -74%
CCN1CCS/C1=C/C=C/C1=[N+](CC)CCS1
→ 6% | -7% | -46%[inhibitor] | -3% | 13 | 1% | 8% | -32%[inhibitor] | -68%
OC(COC1CCCCC1)CN1CCCCC1 (configuration not stated)
→ / | -3% | -2% | -1% | -2 | -2% | / | -1% | 0%
C=CCc1cc(OC)ccc1OCCN(C)Cc1ccccc1
→ 11% | -3% | 1% | -4% | -3 | -3% | ? | 1% | -5%
OC(Cn1cncn1)(Cn1cncn1)c1ccc(F)cc1F
→ / | / | / | / | 3 | / | 6% | / | -8%
CC[n+]1c(/C=C/N(C)c2ccccc2)oc2ccc(Cl)cc21
→ 1% | 11% | -13% | -10% | 27 | 6% | ? | -7% | -67%
CCOC(=O)c1cccnc1
→ / | / | / | / | / | / | 8% | / | /
CCOc1nc2cccc(C(=O)OC(C)OC(=O)OC3CCCCC3)c2n1Cc1ccc(-c2ccccc2-c2nn[nH]n2)cc1 (configuration not stated)
→ / | / | / | / | / | / | 65%[activator] | / | /
Cc1ccc(C(C)C)c(OCCn2ccnc2C)c1
→ -3% | / | -1% | -5% | 5 | -3% | -7% | -2% | -15%
CCN(CC)c1ccc(/C=C/c2ccc3ccc(OC)cc3[n+]2CC)cc1
→ / | -4% | -40%[inhibitor] | -12% | -13 | ? | ? | -31%[inhibitor] | -68%
CCOc1ccc(-c2cnc(NCc3cccc4ccccc34)n2CCOC)cc1
→ 2% | -69%[inhibitor] | -8% | -3% | -8 | 1% | -21% | 1% | -49%
Cc1cc(C)c(C)c(OCCCCN(C)Cc2ccccc2)c1
→ 2% | 0% | 2% | -9% | -8 | 0% | ? | -5% | -41%
CC(C)(C)c1ccc(S(=O)(=O)N(CCCN2CCOCC2)Cc2cccs2)cc1
→ 8% | -1% | -5% | -11% | 3&20 | -9% | -11% | 0% | -28%&-35%
CC[n+]1c(/C=C/N(C)c2ccccc2)oc2ccccc21
→ -7% | -29% | -28% | -6% | 8 | 4% | -3% | -28% | -74%
C=CCNC(N)=S
→ 0% | 15% | 14% | 0% | -1 | 7% | -3% | 3% | 1%
Cc1[nH]c2ccccc2c1CN1CCC(Cc2ccccc2)CC1
→ -14% | -15% | -9% | -2% | 1 | -2% | ? | -5% | -66%
OC(CNCC(c1ccco1)N1CCCCC1)c1ccccc1 (configuration not stated)
→ -1% | -3% | -6% | -2% | -6 | 2% | ? | 10% | 3%
CCN(CC)CCNC(=O)COc1ccc(OC)cc1
→ 1% | -3%&6% | 2%&-5% | -7%&2% | -22&-9 | 4%&4% | 12% | -1%&-4% | -18%&1%
Cc1ccccc1N1C(=O)c2cc(S(N)(=O)=O)c(Cl)cc2NC1C (configuration not stated)
→ / | 1% | -7%[46.1 µM] | -20% | -23 | 1% | 11%&0% | -5%[46.1 µM] | -22%
Cc1cscn1
→ / | -1% | -5% | 4% | -8 | 0% | / | 0% | 6%
CN(C)C(=O)COC(=O)Cc1ccc(OC(=O)c2ccc(N=C(N)N)cc2)cc1
→ / | / | / | / | / | / | 6% | / | /
CCCCCn1ccc(=N)cc1
→ -2% | 5% | -33%[inhibitor] | -5% | 11 | 1% | -16% | -39%[inhibitor] | -35%
Cc1ccc2[nH]c(C)c(/C=C/c3cc[n+](C)cc3)c2c1
→ / | -1% | -43%[inhibitor] | -7% | ? | 0% | -30% | -41%[inhibitor] | -50%
O=CC(=O)c1ccccc1
→ / | -8% | 1% | 10% | 26 | 0% | / | 5% | 2%
C=CCc1cccc(OC)c1OCCOCCn1ccnc1
→ -1% | -4% | -1% | -1% | 13 | 0% | -28% | -1% | -18%
COc1ccccc1NC(=O)c1nc(S(=O)(=O)Cc2ccccc2)ncc1Cl
→ / | -4% | -52%[inhibitor] | 0% | -16 | -14% | / | -46%[inhibitor] | -101%
O=c1/c(=C\c2cccc(O)c2)sc2nc(-c3ccccc3)c(-c3ccccc3)n12
→ -5% | -10% | 0% | -4% | -21 | 0% | / | -9% | -51%
O=C(c1cccnc1)N1CCN(Cc2ccccc2Br)CC1
→ -1% | -1% | 1% | -8% | -6 | -1% | / | 0% | -14%
Cc1ccc(/C=C/c2ccc(N(C)C)cc2)[n+](C)c1
→ / | 20% | -32%[inhibitor][1.84 µM] | -3% | -6 | 3% | -6% | -39%[inhibitor] | -26%
CCOC(=O)c1c(-c2ccc(Cl)cc2)csc1NC(=O)CNCc1ccco1
→ -11% | -2% | -4% | -6% | 1 | -1% | / | -1% | -35%

Part of the list above in order of length of the SMILES, lowest first:
Value order – PKM2 activator | p53 reactivation | Rab9 promoter act | ELG1 genotox | Giardia kill | FLuc counter | Menin MLL FP TR | NPC1 prom act | BRCA1 expr up
C=CCNC(N)=S
→ 0% | 15% | 14% | 0% | -1 | 7% | -3% | 3% | 1%
O=CC(=O)c1ccccc1
→ / | -8% | 1% | 10% | 26 | 0% | / | 5% | 2%
CCN(CC)CCNC(=O)COc1ccc(OC)cc1
→ 1% | -3%&6% | 2%&-5% | -7%&2% | -22&-9 | 4%&4% | 12% | -1%&-4% | -18%&1%
OC(CNCC(c1ccco1)N1CCCCC1)c1ccccc1 (configuration not stated)
→ -1% | -3% | -6% | -2% | -6 | 2% | ? | 10% | 3%
O=C(c1cccnc1)N1CCN(Cc2ccccc2Br)CC1
→ -1% | -1% | 1% | -8% | -6 | -1% | / | 0% | -14%
Cc1[nH]c2ccccc2c1CN1CCC(Cc2ccccc2)CC1
→ -14% | -15% | -9% | -2% | 1 | -2% | ? | -5% | -66%
Cc1ccc2[nH]c(C)c(/C=C/c3cc[n+](C)cc3)c2c1
→ / | -1% | -43%[inhibitor] | -7% | ? | 0% | -30% | -41%[inhibitor] | -50%
CCOc1ccc(-c2cnc(NCc3cccc4ccccc34)n2CCOC)cc1
→ 2% | -69%[inhibitor] | -8% | -3% | -8 | 1% | -21% | 1% | -49%
COc1ccccc1NC(=O)c1nc(S(=O)(=O)Cc2ccccc2)ncc1Cl
→ / | -4% | -52%[inhibitor] | 0% | -16 | -14% | / | -46%[inhibitor] | -101%
CC(C)(C)c1ccc(S(=O)(=O)N(CCCN2CCOCC2)Cc2cccs2)cc1
→ 8% | -1% | -5% | -11% | 3&20 | -9% | -11% | 0% | -28%&-35%
O=c1/c(=C\c2cccc(O)c2)sc2nc(-c3ccccc3)c(-c3ccccc3)n12
→ -5% | -10% | 0% | -4% | -21 | 0% | / | -9% | -51%

Next part
Value order – PKM2 activator | p53 reactivation | Rab9 promoter act | ELG1 genotox | Giardia kill | FLuc counter | Menin MLL FP TR | NPC1 prom act | BRCA1 expr up
CCOC(=O)c1c(NC(=O)C(C)NCc2ccco2)sc2c1CCC(C)C2 (configuration not stated)
→ 7% | 0% | -2% | -4% | 1 | 4% | ? | -3% | -40%
Cc1nc(NCc2ccco2)c2c(C)c(C)sc2n1
→ 1% | 4% | -16% | -27% | -1 | 0% | -2% | -17% | -85%
CCCCCn1c2c(c(=N)c3ccccc31)CCC2
→ -6% | -3% | -40%[inhibitor] | -18% | -18 | -2% | / | -35%[inhibitor] | -5%
COc1cccc(OC)c1C(=O)NC1C(=O)N2C1SC(C)(C)C2C(=O)O (configuration not stated)
→ / | / | / | / | / | / | -4% | / | /
